# MT1-MMP act inh = blockers of MT1-MMP proenzyme processing, primary screen, HT1080 RFP-PRO-GFP cells, GFP/RFP fluorescence; GFP/RFP ratio fluorescence, overnight; percent of plate control window, DMSO zero; 360,000 compounds, 0.061% hits; GFP/RFP ratio change, % at 20 µM;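 active = GFP/RFP ratio change of at least 30% with cell ATP level not reduced by more than half and red fluorescence within 50% of control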; note: strong numbers were not always called active
#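 Test system: HT1080 RFP-PRO-GFP cells; Benchmarks: DMSO and RFP-L50D-GFP cell wells; Timing: cells overnight before dosing, compound overnight, 37 °C, 5% CO2; Compound: one 20 µM compound dose with 1% DMSO; Read-out: GFP/RFP fluorescence ratio.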
# Rce1 inhib = yeast Rce1p protease inhibitors, primary screen, biochemical, fluorescence, cell-free homogeneous; calls only; CAAX prenyl protease 2 (Saccharomyces cerevisiae (strain ATCC 204508 / S288c)), Q03530; yeast membranes, quenched prenylated peptide cleavage fluorescence; 290,000 compounds, 0.27% hits;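 active = fall in fluorescence gain of 50% or more versus controls, with final raw signal at or below 3038400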;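 note: plate controls were neutral control wells for no effect and wells lacking membranes for full effect; tested at 10 µM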
# Target sequence (Q03530 whole entry, looked up): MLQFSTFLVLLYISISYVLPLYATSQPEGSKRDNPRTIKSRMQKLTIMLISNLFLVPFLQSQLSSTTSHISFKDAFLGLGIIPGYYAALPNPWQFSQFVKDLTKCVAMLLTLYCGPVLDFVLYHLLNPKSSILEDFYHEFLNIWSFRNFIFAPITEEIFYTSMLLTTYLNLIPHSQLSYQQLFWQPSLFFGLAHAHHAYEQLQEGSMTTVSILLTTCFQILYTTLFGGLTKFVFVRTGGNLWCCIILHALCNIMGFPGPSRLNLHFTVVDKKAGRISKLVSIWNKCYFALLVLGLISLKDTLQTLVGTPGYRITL
# CSC inhib = cancer stem cell viability inhibitors, primary screen, luminescence | cancer stem cell-like cells viability | inhibition, % at 7.5 µM | AID 2717, 2010 | 300,000 compounds, 1.1% hits;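 active = mean at 75% or more and at least half the replicates too; tested in HMLE shEcad cells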;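 note: 0% = median of negative and 100% = median of positive control wells; the first replicate is given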
# UUG fidelity = modulators of yeast start codon fidelity, primary screen, whole organism, S. cerevisiae, single point, plate reader | AID 602363, 2012 | S. cerevisiae UUG-firefly luciferase reporter, luminescence/redox ratio | 350,000 compounds, 0.13% hits | activity score, % at 18.7 µM;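 active = replicate mean at a twofold rise or more, about +100% in these data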;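 note: firefly luciferase made from a UUG start codon reports start codon fidelity; reporter light over untreated wells divided by growth signal over untreated wells; some hits fall short of that in this replicate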
# PABP polyA inh = PABP poly(A) RNA binding inhibitors, primary screen, biochemical, fluorescence polarization, uHTS. Polyadenylate-binding protein 1 (Homo sapiens), P11940. inhibition, % at 35 µM. 290,000 compounds, 1% hits;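 active = 50% or more with normal probe brightness, or confirmed in later tests; about a fifth of its hits are not listed in these tables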;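 note: calls also rest on retests at 20 µM and on dose response follow-up; controls were probe without protein and protein plus probe with vehicle; some compounds called inactive have numbers as strong as hits; many hits fall short of the cut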
# Env fusion inh = inhibitors of HIV-1 Env-driven cell-cell fusion, primary screen, HeLa-JRFL effector, CEM21 target cells, luciferase | inhibition, % at 12.3 µM | 360,000 compounds, 1.1% hits | AID 651610, 2012;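 active = mean replicate inhibition score of at least 50 and every replicate individually at or above 50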;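 note: 0% = plate neutral controls and 100% = maraviroc near 300 nM; one replicate is shown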
# eIF4H inh = human eIF4H binding inhibitors, primary screen, translation initiation inhibitor project, biochemical, uHTS, fluorescence polarization. Eukaryotic translation initiation factor 4H (Homo sapiens), Q15056. eIF4H fluorescence polarization binding assay. inhibition, % at 35 µM. 290,000 compounds, 0.94% hits;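 active = 50% or more with normal probe brightness, or confirmed in later tests; about a fifth of its hits are not listed in these tables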;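 note: calls also rest on retests at 20 µM and on dose response follow-up; 0% = protein and probe with vehicle and 100% = probe without protein; strong numbers were not always called active; many hits fall short of the cut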
# MT1-MMP act inh RFP = also measured in MT1-MMP act inh; calls as there; RFP signal change, %; measured here: RFP expression control read;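 0 = vehicle wells; hits needed this value within 50% of zero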
# Active calls of the source: *; i = inactive; nt = no result given. Only part of the results is shown (hit frequency here may not be typical).
SMILES,MT1-MMP act inh,MT1-MMP act inh RFP,Rce1 inhib,CSC inhib,UUG fidelity,PABP polyA inh,Env fusion inh,eIF4H inh
CCOc1ccc(S(=O)(=O)N2CCCC(C(=O)NCc3ccccn3)C2)cc1 (configuration not stated),-1,-1,i,-15,-13,1,7,-10
Cc1ccc(NS(=O)(=O)c2ccc(OCC(=O)Nc3cccc([N+](=O)[O-])c3)c(C)c2)cc1,2,-15,i,63,-15,-9,27,-10
COc1ccc(Cl)cc1S(=O)(=O)N1CCC(C(=O)NC2CCCC2)CC1,-2,-2,i,2,1,3,9,13
Cc1nc2nc[nH]c2cc1Br,4,6,i,0,-8,-10,nt,2
CCc1nc2c(OCc3ccccc3)cccn2c1N(C)C(=O)C(C)C,-9,2,nt,nt,-3,nt,-4,nt
CN(C)CC/C=C1/c2ccccc2CS(=O)(=O)c2ccccc21,-1,5,i,-9,14,nt,-1,nt
Cc1cc(C=O)c(C)n1-c1ccc(Oc2ccc([N+](=O)[O-])cn2)cc1,5,2,i,5,nt,7,11,6
S=C(NCc1ccccn1)Nc1ccccc1,2,6,i,nt,-2,-5,-5,12
CC1(C)CC(=O)C2=C(C1)OC(N)=C(C#N)C2c1ccc(OC(=O)N2CCOCC2)cc1 (configuration not stated),-2,2,i,-11,11,0,-11,-7
Cn1cccc1CC(=O)N/N=C/C(Cl)=C/c1ccccc1,-2,-1,i,0,nt,-17,0,44
O=C(NCc1ccccc1)c1ccc2nccnc2c1,-7,1,i,8,2,8,nt,-8
COc1cccc(NC(=S)N2CCN(c3ccccn3)CC2)c1,8,5,i,7,-17,-10,12,-4
COC(=O)/C(C#N)=C/c1ccc(C)o1,2,2,i,-34,-7,1,-23,-7
COc1ccc(NS(=O)(=O)c2cccc(C(=O)NCC3(N4CCCCC4)CCCCC3)c2)cc1,-4,1,i,1,nt,nt,7,nt
Cc1ccc(C)c(N2C(=N)S/C(=C\c3ccc(-c4ccccc4C(=O)O)o3)C2=O)c1,-46,9,i,11,113*,-8,-13,44
FC(F)(F)c1cnc(C(c2ccccc2)c2ncn[nH]2)c(Cl)c1 (configuration not stated),-1,1,i,-6,-36,1,-1,5
Cc1ccc(S(=O)(=O)N2CCN(C3CC4CCC3C4)CC2)cc1 (configuration not stated),2,0,i,28,-13,2,22,1
COc1ccc(-c2oc3ccc(-c4cc(OC)c(OC)c(OC)c4)cc3c2-c2ccc(OC)nc2)cc1,-6,-9,i,37,-21,13,7,-9
CCOC(=O)N1CCN(Cc2ccc3ccccc3c2)CC1,5,0,i,-3,-18,0,-2,13
COc1cc(OC)c(C(=O)OCC(=O)N2CCOCC2)cc1OC,-3,-3,i,-6,-6,4,-15,7
O=C(NC1CC1)c1ccc(NC(=O)C2CCCC2)cc1,5,5,nt,nt,-13,nt,-154,nt
Cc1ccc(CNC(=O)[C@H](Cc2ccccc2)NC(=O)C2CCNCC2)cc1,1,3,i,-5,-4,12,-2,0
Cc1cc(NC(=O)CN(C)S(=O)(=O)c2ccc(-c3ccc(=O)[nH]n3)s2)ccc1Br,-3,0,i,-10,-7,-3,4,-14
CSCC[C@H](NC(=O)NCc1cccs1)C(=O)O,-4,-2,nt,0,-20,4,nt,7
O=C1CC(c2ccc(Cl)cc2)n2nc(N3C(=O)CCC3=O)nc2N1 (configuration not stated),-8,3,i,-4,-13,-9,nt,-4
CC(C)(C)c1ccc(C(=O)O/N=C(\N)c2ccccn2)cc1,-8,-6,i,-6,-82,-7,-33,-4
O=C(NCc1ccco1)c1cc(NS(=O)(=O)c2cccc([N+](=O)[O-])c2)ccc1O,2,-1,i,-3,nt,-1,8,-3
COc1ccc(CNc2nc3ccccc3s2)cc1OC,2,-22,i,-26,-4,4,-21,-4
CCN(CC)S(=O)(=O)c1ccc(C(=O)NCc2ccc(C)cc2)cc1,3,7,i,-9,-1,0,-21,-6
O=C(Nc1ccc2c(c1)OCCO2)c1cc(-n2cnnc2)ccc1Cl,-1,3,i,-13,-30,-7,nt,-5
Nc1nc(N)c(N=O)c(OCC2CCCCC2)n1,3,7,i,5,-7,6,-99,-1
Cc1cccc(Nc2nc(N)c([N+](=O)[O-])c(N3CCN(C)CC3)n2)c1,-1,-9,i,-4,0,-17,17,-4
CC(=O)Nc1cc2c(cc1NC(=O)Cn1nc(-c3ccc(F)cc3)ccc1=O)OCCO2,2,-1,i,5,-8,7,3,3
O=C(Nc1nc2ccc(S(=O)(=O)N3CCCC3)cc2s1)c1ccco1,-4,1,i,-8,nt,-2,0,11
O=C(OCC(=O)N1CCCC1=O)c1cc2ccccc2o1,0,3,nt,-3,-39,nt,0,nt
CCOc1ccc(CCNC(=O)C2CCCN(c3ncnc4c3nc3n4CCCCC3)C2)cc1 (configuration not stated),0,-4,i,3,-3,-2,3,-10
COCCCNC(=O)CC1C[C@H](C(=O)N2CCCCC2)[C@@]2(C)c3[nH]c4ccc(OC)cc4c3CCN2C1=O (some centres not stated),2,4,nt,nt,2,nt,0,nt
COc1ccc(C)cc1S(=O)(=O)Nc1cc(Cl)ccc1Cl,5,2,i,-1,-4,13,nt,-5
CN(C)CCCNC(=O)c1cc(Br)ccc1O,4,2,i,-5,6,-9,-2,-5
COCCCNCC(O)C(F)(F)F (configuration not stated),3,9,i,-7,nt,-2,-5,1
O=C(NCc1csc2ccccc12)Nc1cc(Cl)cc(Cl)c1,1,-1,i,19,nt,-4,2,4
CCOC(=O)C1=C(C)N(CCCCCC(=O)O)C(=O)NC1c1ccc(Cl)cc1 (configuration not stated),2,-1,i,-13,-9,0,-63,-4
COc1ccc(CN(C)Cc2nc3scc(-c4ccccc4)c3c(=O)[nH]2)cc1OC,1,-3,i,-1,nt,-18,2,-4
COc1ccc(CNC(=O)COC(=O)c2ccc(S(=O)(=O)N3CCCCC3)cc2)cc1,-1,1,nt,0,-10,nt,-18,nt
CCC1CCCCN1CCNC(=O)CNS(=O)(=O)c1ccc2nc(C)sc2c1 (configuration not stated),2,2,i,-11,-4,6,nt,-1
Cc1ccc(-n2ncc3c(=O)n(CC(=O)NC4CCCCC4)cnc32)cc1,-5,0,i,1,-17,4,nt,-10
Cc1cccc(NC(=O)c2cc([N+](=O)[O-])ccc2NCC2CCCO2)n1 (configuration not stated),-5,-7,i,-8,nt,-28,-15,4
CC(=O)Nc1ccc(NC(=O)C(NS(=O)(=O)c2cccc3nsnc23)C(C)C)cc1 (configuration not stated),-3,0,i,-2,-12,9,5,0
CCOC(=O)c1c(NC(=O)CN2C(=O)NC3(CCCCC3C)C2=O)sc(C)c1CC (configuration not stated),3,3,i,-2,-2,nt,6,nt
c1ccc(-n2nnnc2Oc2ccc(-n3ccnc3)cc2)cc1,9,-1,i,1,-20,-3,nt,1
COc1ccc(CNC(=O)[C@H](Cc2c[nH]c3ccccc23)NC(=O)[C@@H]2Cc3ccccc3CN2)cc1,-3,3,i,6,-17,-6,nt,2
CCN(CC)CCN1C(=O)C(=O)/C(=C(/O)c2c(C)[nH]c(C(=O)OC)c2C)C1c1ccccc1 (configuration not stated),1,5,i,-5,-12,-2,-10,-2
CC(=O)Nc1cccc(NC(=S)Nc2cccc(Cl)c2C)c1,5,9,i,nt,-23,-7,3,11
O=C(NCc1ccccn1)/C(=N/O)c1ccccc1,0,0,i,0,-26,-4,nt,-5
Cc1cc(NC(=O)c2sccc2C)n(-c2cccc(Cl)c2)n1,5,5,i,-16,-7,5,nt,-7
COc1ccc([C@H]2CC(=O)C=C(c3ccc4ncccc4c3)C2)cc1OC,1,-9,nt,6,-11,nt,-4,nt
Cc1ccc(-c2nc3cc(Cl)ccc3o2)cc1,-8,-5,nt,-3,-28,0,nt,-7
CCC(C)N(C(=O)COc1ccc(-c2nnco2)cc1)C1CCS(=O)(=O)C1 (configuration not stated),2,2,i,3,-7,nt,0,nt
COc1cc(/C=N/O)ccc1Oc1cnccn1,-3,2,i,-2,-17,2,-27,-8
CCOC(=O)c1ccc(-c2ccc3oc(-c4ccsc4)cc(=O)c3c2)cc1F,-1,-7,nt,17,-12,nt,nt,nt

# 6 compounds out of the list, arranged by SMILES length, ascending.
SMILES,MT1-MMP act inh,MT1-MMP act inh RFP,Rce1 inhib,CSC inhib,UUG fidelity,PABP polyA inh,Env fusion inh,eIF4H inh
COc1cc(/C=N/O)ccc1Oc1cnccn1,-3,2,i,-2,-17,2,-27,-8
O=C(NCc1ccccn1)/C(=N/O)c1ccccc1,0,0,i,0,-26,-4,nt,-5
c1ccc(-n2nnnc2Oc2ccc(-n3ccnc3)cc2)cc1,9,-1,i,1,-20,-3,nt,1
CCOC(=O)c1ccc(-c2ccc3oc(-c4ccsc4)cc(=O)c3c2)cc1F,-1,-7,nt,17,-12,nt,nt,nt
CCC(C)N(C(=O)COc1ccc(-c2nnco2)cc1)C1CCS(=O)(=O)C1 (configuration not stated),2,2,i,3,-7,nt,0,nt
CCOC(=O)c1c(NC(=O)CN2C(=O)NC3(CCCCC3C)C2=O)sc(C)c1CC (configuration not stated),3,3,i,-2,-2,nt,6,nt

# (listing goes on)
SMILES,MT1-MMP act inh,MT1-MMP act inh RFP,Rce1 inhib,CSC inhib,UUG fidelity,PABP polyA inh,Env fusion inh,eIF4H inh
COc1cccc([C@@H]2Oc3ccc(Br)cc3C(=O)[C@H]2OC(=O)NC2CCCC2)c1,nt,nt,nt,21,nt,-2,nt,-1
COc1ccccc1C(=O)N/N=C(\C)c1ccc(NC(=O)Cc2ccccc2)cc1,-1,-3,i,1,-17,6,-84,19
COc1ccc(Br)cc1C(=O)NC(=S)Nc1ccc(Cl)c(C(=O)O)c1,-4,-1,i,nt,nt,-8,2,-10
CC1(C)CC(NS(=O)(=O)c2ccc(Cl)cc2)CC(C)(C)N1,-3,4,i,-12,-10,-2,19,-10
Nc1nonc1NC(=O)CSc1nc2ccccc2s1,1,4,i,2,-5,-1,nt,6
COC(=O)c1ccc(C)c(NC(=O)CCc2ccc(OC)c(OC)c2)c1,-1,1,i,3,-13,3,-4,-3
CCOC(=O)c1sc(NC(=O)CN2CCN(c3ccccc3)CC2)nc1C,-2,0,i,2,-6,2,-10,-1
O=C(CN1C(=O)c2cccc([N+](=O)[O-])c2C1=O)N1CCN(S(=O)(=O)c2ccccc2)CC1,0,5,nt,3,0,nt,-9,nt
CC(C)n1c(=O)c2ccccc2n1Cc1cn(CCc2c[nH]c3ccccc23)nn1,6,5,nt,nt,10,nt,20,nt
CC(=C1C2C=CC1C1C(=O)NC(=O)C21)c1ccccc1 (configuration not stated),-6,-5,i,-11,-4,5,2,-8
CC(C)CN(C(=O)CSc1nnc(-c2ccco2)o1)c1c(N)n(Cc2ccccc2)c(=O)[nH]c1=O,1,5,i,-4,nt,-3,-19,4
CCCCn1c(N)c(N(CC(C)C)C(=O)CSC(C)C(=O)Nc2cc(C)on2)c(=O)[nH]c1=O (configuration not stated),-1,-1,i,-9,nt,nt,-8,nt
Cc1c(CC(=O)O)c(=O)oc2cc(OCc3ccc(Br)cc3)ccc12,2,3,i,6,-26,-8,-15,-4
O=C(NCCC1=CCCCC1)C1CC(=O)N(C2CCCCCC2)C1 (configuration not stated),-4,3,i,0,5,11,nt,-1
CC(=O)c1cc2c(cc1NC(=O)CN1CCOCC1)OCO2,-1,4,i,-14,nt,-2,-45,3
CC(=O)NC1=NN(C(C)=O)C2(CCCC2)S1,3,6,i,-7,nt,8,-7,-3
CCCC(=O)Nc1cccc(-c2nc3ccccc3c(=O)o2)c1,2,5,i,-8,nt,24,4,-1

# High-throughput results deposited in PubChem by several laboratories.
